Screening data as filed in PubChem BioAssay.
UUG fidelity = modulators of yeast start codon fidelity, primary screen, whole organism, S. cerevisiae, single point, plate reader; AID 602363, 2012; activity score, % at 18.7 µM; 350,000 compounds, 0.13% hits; S. cerevisiae UUG-firefly luciferase reporter, luminescence/redox ratio;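 active = replicate mean at a twofold rise or more, about +100% in these data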;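 also: firefly luciferase made from a UUG start codon reports start codon fidelity; reporter light over untreated wells divided by growth signal over untreated wells; some hits fall short of that in this replicate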
Active calls of the source: *. A portion of the library, so the mix of outcomes need not match the whole.

| UUG fidelity | SMILES |
| --- | --- |
| 14 | CCNC(=O)[C@@H]1[C@@H](CO)[C@@H]2Cn3c(ccc(-c4ccccc4)c3=O)[C@@H]2N1Cc1cc(F)ccc1F |
| -12 | C[C@@H]1CN([C@@H](C)CO)C(=O)c2cc(NS(C)(=O)=O)ccc2O[C@@H]1CN(C)S(=O)(=O)c1cn(C)cn1 |
| -8 | CN1c2ccc(Br)cc2[C@H]2[C@H](CCN2S(=O)(=O)c2cccc(F)c2)[C@H]1CO |
| 2 | CO[C@H]1CN(C)C(=O)c2cc(NS(C)(=O)=O)ccc2OC[C@H](C)N(S(C)(=O)=O)C[C@H]1C |
| -3 | CCC(=O)Nc1ccc2c(c1)OC[C@@H](C)N(CC1CC1)C[C@@H](C)[C@H](OC)CN(C)C2=O |
| 5 | Cc1noc(C)c1NC(=O)Nc1ccc2c(c1)C(=O)N([C@H](C)CO)C[C@@H](C)[C@H](CN(C)S(=O)(=O)c1cccs1)O2 |
| -16 | Cn1cnc(S(=O)(=O)N2CC[C@@H]3[C@H](CO)Nc4ccc(C#Cc5ccccc5F)cc4[C@@H]32)c1 |
| 17 | CC(=O)N1CCCCN2[C@@H](CO)[C@H](c3ccc(C#Cc4ccccc4F)cc3)[C@@H]2C1 |
| -3 | C[C@@H]1CN([C@H](C)CO)C(=O)c2cccc(NC(=O)C3CCOCC3)c2O[C@@H]1CN(C)C(=O)Nc1ccccc1 |
| -11 | C/C=C/c1ccc([C@@H]2[C@@H](CO)N3CCCCN(C(=O)Nc4ccc(F)cc4)C[C@@H]23)cc1 |
| 9 | CCCN1C[C@H](C)[C@H](OC)CN(C)C(=O)c2ccc(NC(=O)C3CC3)cc2OC[C@H]1C |
| 17 | CCCNC(=O)[C@@H]1[C@@H](CO)[C@@H]2Cn3c(ccc(/C=C/c4ccccc4)c3=O)[C@@H]2N1CCC |
| 6 | CCCC#Cc1ccc([C@H]2[C@H](CO)N3CCCCN(C(=O)NC4CCCC4)C[C@@H]23)cc1 |
| 3 | C[C@@H]1CN([C@H](C)CO)C(=O)c2cc(NC(=O)CCCN(C)C)ccc2O[C@@H]1CN(C)S(=O)(=O)c1cccs1 |
| 3 | CCN(C[C@H]1N[C@H](CO)[C@H]1c1ccc(-c2ccc(F)cc2)cc1)C(=O)COC |
| -12 | COCC#Cc1ccc([C@@H]2[C@@H](CO)N3CCCCN(Cc4ccncc4)C[C@H]23)cc1 |
| -3 | CN(C[C@H]1N[C@@H](CO)[C@@H]1c1ccc(-c2cccnc2)cc1)C(=O)c1ccccc1 |
| -13 | COc1ccc(NC(=O)Nc2ccc3c(c2)C(=O)N([C@@H](C)CO)C[C@@H](C)[C@H](CN(C)Cc2ccncc2)O3)cc1 |
| -7 | CCCNC(=O)C[C@H]1CC[C@H]2[C@H](COc3ccc(NC(=O)c4cccs4)cc3C(=O)N2C)O1 |
| 54 | CCCNC(=O)N1[C@H](CO)[C@@H]2c3ccccc3N(C(=O)Nc3ccc(F)cc3)C[C@@H]21 |
| 2 | N#Cc1cccc(-c2ccc3c(c2)[C@H]2[C@H](CCN2C(=O)CN2CCOCC2)[C@@H](CO)N3)c1 |
| 1 | COc1ccc(CN2C[C@H](C)[C@@H](OC)CN(C)C(=O)c3cc(NC(=O)c4nc5ccccc5s4)ccc3OC[C@H]2C)cc1 |
| -12 | C[C@@H]1CN([C@H](C)CO)C(=O)c2cc(NC(=O)Nc3ccc(F)cc3)ccc2O[C@@H]1CN(C)S(=O)(=O)c1ccccc1 |
| 5 | CN(C)CC#Cc1ccc([C@@H]2[C@@H](CO)N3CCCCN(C(=O)Nc4ccccc4F)C[C@H]23)cc1 |
| -6 | C[C@H]1CN([C@@H](C)CO)C(=O)c2cccc(NC(=O)C3CC3)c2O[C@H]1CN(C)CC1CC1 |

| UUG fidelity | SMILES |
| --- | --- |
| -10 | CN1C[C@H]2[C@@H](c3ccccc31)[C@@H](CO)N2C(=O)Nc1ccccc1Cl |
| -12 | COC(=O)C[C@H]1CC[C@H]2[C@H](COc3ccc(NC(=O)c4cnccn4)cc3C(=O)N2C)O1 |
| 5 | COCCN(C[C@H]1N[C@H](CO)[C@H]1c1ccc(-c2ccc(F)cc2)cc1)C(C)=O |
| -5 | COCC(=O)N1CCCCN2[C@H](CO)[C@@H](c3ccc(C#Cc4cccnc4)cc3)[C@@H]2C1 |
| 13 | C[C@H](O)C#Cc1ccc([C@H]2[C@@H](CO)N3CCCCN(C(=O)c4cccc(F)c4)C[C@H]23)cc1 |
| -15 | C[C@@H]1CN([C@H](C)CO)C(=O)Cc2cc(NS(=O)(=O)c3cn(C)cn3)ccc2O[C@@H]1CN(C)C |
| 4 | CCS(=O)(=O)N1CCCCN2[C@@H](CO)[C@@H](c3ccc(C4=CCCC4)cc3)[C@@H]2C1 |
| 4 | O=S(=O)(c1ccccc1)N1CCCCN2[C@H](C1)[C@H](c1ccc(-c3cncnc3)cc1)[C@@H]2CO |
| 1 | CCN1[C@H](C(=O)NCc2cccc(OC)c2)[C@@H](CO)[C@@H]2Cn3c(ccc(C4=CCCCC4)c3=O)[C@@H]21 |
| -3 | CCC(=O)Nc1ccc2c(c1)C(=O)N(C)C[C@H](OC)[C@@H](C)CN(C(=O)C1CCC1)[C@@H](C)CO2 |
| -15 | CN(C)C(=O)c1cccc(-c2ccc3c(c2)[C@H]2[C@H](CCN2C(=O)Cc2ccccc2)[C@H](CO)N3)c1 |
| 9 | C[C@H]1CN([C@@H](C)CO)C(=O)c2cccc(NC(=O)C3CCOCC3)c2O[C@@H]1CN(C)C |
| 4 | O=C(C[C@H]1CC[C@@H]2[C@H](COC[C@H](O)CN2Cc2ccccc2F)O1)N[C@H]1CCN(Cc2ccccc2)C1 |
| 2 | O=S(=O)(c1ccc(F)cc1)N1C[C@@H]2[C@H](c3ccccc31)[C@H](CO)N2Cc1ccc2c(c1)OCO2 |
| 10 | O=C(NC1CCC1)[C@@H]1[C@@H](CO)[C@@H]2Cn3c(ccc(C4=CCCC4)c3=O)[C@H]1N2C(=O)c1ccccc1 |
| -2 | CC(C)NC(=O)Nc1cccc2c1O[C@@H](CN(C)Cc1ccc(C(=O)O)cc1)[C@H](C)CN([C@H](C)CO)C2=O |
| 3 | O=C(c1ccc(F)cc1)N1CC[C@@H]2[C@H]1c1cc(C3=CCCCC3)ccc1N[C@@H]2CO |
| 2 | CO[C@@H]1CN(C)C(=O)c2cc(NC(=O)C3CC3)ccc2OC[C@@H](C)NC[C@H]1C |
| 3 | CO[C@H]1CN(C)C(=O)c2ccc(NS(=O)(=O)c3ccccc3)cc2OC[C@@H](C)N(C(=O)NC(C)C)C[C@@H]1C |
| 16 | O=C(C1CC1)N1C[C@H]2[C@@H](c3ccccc31)[C@@H](CO)N2C(=O)Nc1cccc(F)c1 |
| -7 | O=C(Nc1nccs1)[C@@H]1[C@@H](CO)[C@@H]2Cn3c(ccc(-c4cccnc4)c3=O)[C@@H]2N1CC1CCCC1 |
| -10 | CCC(=O)N1CCCCN2[C@H](CO)[C@H](c3ccc(C#Cc4ccccc4)cc3)[C@H]2C1 |
| 10 | C[C@@H]1CN([C@@H](C)CO)C(=O)c2ccccc2-c2ccccc2CO[C@H]1CN(C)S(=O)(=O)c1ccc(C#N)cc1 |
| 7 | CCCNC(=O)[C@H]1[C@H](CO)[C@H]2Cn3c(ccc(C4=CCCCC4)c3=O)[C@H]2N1C(=O)c1cnccn1 |
| 11 | COc1ccccc1C(=O)N1C[C@H]2[C@@H](c3ccccc31)[C@@H](CO)N2C(=O)C1CCCC1 |

Sorted by value in UUG fidelity (smallest number first): three of the compounds above.
canonical_smiles,UUG fidelity
C[C@@H]1CN([C@H](C)CO)C(=O)Cc2cc(NS(=O)(=O)c3cn(C)cn3)ccc2O[C@@H]1CN(C)C,-15
O=C(Nc1nccs1)[C@@H]1[C@@H](CO)[C@@H]2Cn3c(ccc(-c4cccnc4)c3=O)[C@@H]2N1CC1CCCC1,-7
CO[C@@H]1CN(C)C(=O)c2cc(NC(=O)C3CC3)ccc2OC[C@@H](C)NC[C@H]1C,2

Carrying on:
| UUG fidelity | SMILES |
| --- | --- |
| -11 | COc1cccc(C(=O)Nc2ccc3c(c2)C(=O)N(C)C[C@H](OC)[C@H](C)CN(C)[C@H](C)CO3)c1 |
| 18 | CO[C@@H]1CN(C)C(=O)c2cc(NC(=O)NC3CCCCC3)ccc2OC[C@@H](C)N(C(C)=O)C[C@@H]1C |
| -9 | CO[C@@H]1CN(C)C(=O)c2ccc(NC(=O)C3CCCCC3)cc2OC[C@@H](C)NC[C@@H]1C |
| 16 | CC(=O)N1CC[C@@H]2[C@@H](CO)Nc3ccc(C#Cc4ccccc4F)cc3[C@@H]21 |
| -2 | C[C@@H]1CN([C@H](C)CO)C(=O)c2cccc(NS(=O)(=O)c3cn(C)cn3)c2O[C@H]1CN(C)C(=O)Nc1ccc2c(c1)OCO2 |
| 6 | CC=Cc1ccc2n(c1=O)C[C@H]1[C@H](CO)[C@@H](C(=O)NCC3CCCCC3)N(C(C)=O)[C@@H]21 (mixture of isomers) |
| 8 | CC(C)NC(=O)Nc1cccc2c1O[C@@H](CN(C)S(=O)(=O)c1ccc(Cl)cc1)[C@H](C)CN([C@H](C)CO)C2=O |
| -1 | O=C(C[C@@H]1CC[C@H]2[C@@H](COC[C@@H](O)CN2C(=O)Nc2ccc(Cl)c(Cl)c2)O1)NCc1ccccc1 |
| -5 | O=C(c1ccccc1)N1CC[C@@H]2[C@H](CO)Nc3ccc(-c4ccc(F)cc4)cc3[C@@H]21 |
| -8 | CO[C@@H]1CN(C)C(=O)c2cc(NS(C)(=O)=O)ccc2OC[C@H](C)N(CC2CC2)C[C@@H]1C |
| -3 | CO[C@H]1CN(C)C(=O)c2ccc(NC(=O)C3CCOCC3)cc2OC[C@H](C)N(CC2CC2)C[C@H]1C |
| -11 | O=C(NC[C@@H]1N[C@@H](CO)[C@H]1c1ccccc1)C1CC1 |
| 19 | C[C@@H]1CN([C@H](C)CO)C(=O)c2cc(NC(=O)c3ccncc3)ccc2O[C@H]1CN(C)S(=O)(=O)c1ccccc1 |
| -20 | OC[C@H]1[C@H](c2ccc(/C=C/c3ccccc3)cc2)[C@@H]2CN(Cc3cccnc3)CCCCN12 |
| 3 | C[C@@H]1CN([C@@H](C)CO)C(=O)c2cc(NC(=O)CCCCCC(=O)Nc3ccccc3N)ccc2O[C@H]1CN(C)S(=O)(=O)c1cccs1 |
| -3 | CCCNC(=O)N1C[C@@H]2[C@H](c3ccccc31)[C@H](CO)N2C(=O)C1CCOCC1 |
| -8 | Cc1ccc(S(=O)(=O)N(C)C[C@@H]2OCc3ccccc3-c3c(n(C)c4ccccc34)C(=O)N([C@@H](C)CO)C[C@H]2C)cc1 |
| 17 | Cc1noc(C)c1NC(=O)N(C)C[C@@H]1Oc2c(NC(=O)Nc3ccc(C(F)(F)F)cc3)cccc2C(=O)N([C@H](C)CO)C[C@@H]1C |
| -7 | N#Cc1cccc(-c2ccc([C@@H]3[C@H](CO)N4CCCCN(C(=O)Nc5ccccc5)C[C@@H]34)cc2)c1 |
| 34 | C[C@H](CO)N1C[C@H](C)[C@H](CN(C)Cc2ccc(Oc3ccccc3)cc2)Oc2ccc(NC(=O)NC3CCCCC3)cc2C1=O |
| -6 | C[C@H]1CN([C@@H](C)CO)C(=O)c2cccc(NS(=O)(=O)c3cn(C)cn3)c2O[C@H]1CN(C)Cc1ccncc1 |
| -12 | COc1ccc(S(=O)(=O)N(C)C[C@@H]2Oc3c(NC(=O)c4ccncc4)cccc3C(=O)N([C@H](C)CO)C[C@H]2C)cc1 |
| 13 | COC(=O)C[C@@H]1CC[C@@H]2[C@@H](COc3ccc(NC(=O)c4cscn4)cc3C(=O)N2C)O1 |
| 2 | CO[C@@H]1CN(C)C(=O)c2ccc(NC(=O)c3nc4ccccc4s3)cc2OC[C@H](C)N(Cc2cncnc2)C[C@H]1C |
| 2 | COc1ccccc1CNC(=O)C[C@H]1CC[C@@H]2[C@H](COC[C@H](O)CN2C(=O)Nc2ccc(C(F)(F)F)cc2)O1 |

Compounds shown so far with a cyano group:
| UUG fidelity | SMILES |
| --- | --- |
| 2 | N#Cc1cccc(-c2ccc3c(c2)[C@H]2[C@H](CCN2C(=O)CN2CCOCC2)[C@@H](CO)N3)c1 |
| 10 | C[C@@H]1CN([C@@H](C)CO)C(=O)c2ccccc2-c2ccccc2CO[C@H]1CN(C)S(=O)(=O)c1ccc(C#N)cc1 |
| -7 | N#Cc1cccc(-c2ccc([C@@H]3[C@H](CO)N4CCCCN(C(=O)Nc5ccccc5)C[C@@H]34)cc2)c1 |

Next compounds
| UUG fidelity | SMILES |
| --- | --- |
| -7 | CO[C@H]1CN(C)C(=O)c2ccc(NC(=O)C3CCC3)cc2OC[C@H](C)N(Cc2ccncc2)C[C@@H]1C |
| -15 | O=C(Cc1cccnc1)N1[C@H](CO)[C@H]2c3ccccc3NC[C@H]21 |
| 11 | Cc1ccc(S(=O)(=O)Nc2ccc3c(c2)CC(=O)N([C@H](C)CO)C[C@H](C)[C@@H](CN(C)CC2CCCCC2)O3)cc1 |
| 16 | CCCC(=O)Nc1ccc2c(c1)C(=O)N(C)[C@H]1CC[C@H](CC(=O)NCc3ccccc3Cl)O[C@@H]1CO2 |
| 9 | O=C(C[C@H]1CC[C@@H]2[C@H](COC[C@@H](O)CN2S(=O)(=O)c2ccccc2)O1)NCc1ccc2c(c1)OCO2 |
| 20 | CCCNC(=O)C[C@@H]1CC[C@@H]2[C@@H](COc3ccc(NC(=O)Nc4c(C)noc4C)cc3C(=O)N2C)O1 |
| 10 | C[C@H](NC(=O)C[C@@H]1CC[C@H]2[C@H](COc3ccc(NC(=O)C4CCOCC4)cc3C(=O)N2C)O1)c1ccccc1 |
| -6 | C[C@H](NC(=O)C[C@@H]1C[C@@H]2c3cc(NC(=O)C4CCC4)ccc3O[C@@H]2[C@H](CO)O1)c1ccccc1 |
| -1 | Cc1ccc(S(=O)(=O)N(C)C[C@H]2Oc3c(NC(=O)C4CC4)cccc3C(=O)N([C@H](C)CO)C[C@@H]2C)cc1 |
| -2 | O=C(O)C[C@@H]1C[C@H]2c3cc(NS(=O)(=O)c4ccccc4)ccc3O[C@H]2[C@@H](CO)O1 |
| -20 | COc1ccccc1NC(=O)N1CCCCN2[C@H](C1)[C@H](c1ccc(-c3ccccc3)cc1)[C@@H]2CO |
| 17 | C[C@@H](O)C#Cc1ccc([C@@H]2[C@H]3CN(S(=O)(=O)c4ccccc4)CCCCN3[C@H]2CO)cc1 |
